Bioassay records from PubChem.
VACV mCherry inh: inhibitors of vaccinia virus infection (mCherry reporter signal); 310,000 compounds, 0.63% hits; Potency, µM (doses to about 36.5 µM), for the others: top-dose activity change, negative = inhibition, usual class: inhibitors; Vaccinia virus mCherry reporter infection, fluorescence; about a quarter of the inactives have no number; active = well fitted inhibition curve with a large enough effect; inconclusive = small, poorly fitted or top-dose-only effect; inactive = no such curve, though single readings can be large or run the other way; tested in A549 cells; note: nearly all actives have a fitted effect of over 35% in size; inactives centre near -10
VACV Venus inh: vaccinia inhibition (Venus reporter); Potency, µM (highest dose often 36.5 µM), inactives show top-dose activity change, negative = inhibition, actives largely listed as inhibitors; AID 720580; Vaccinia virus Venus reporter expression, fluorescence; 330,000 compounds, 0.46% hits; active means well fitted inhibition curve with a large enough effect; inconclusive means small, poorly fitted or top-dose-only effect; inactive means no such curve, though single readings can be large or run the other way; tested in A549 cells; note: nearly all actives have a fitted effect of over 30% in size; inactives centre near -10
* hit, by the source's call; i = inactive; ? = inconclusive; · = not tested or not shown; [ ] = remark or other dose. % is set by controls: 0 for no effect and ±100 for the full control effect; potency is the fitted concentration of half-maximal effect.

SMILES | VACV mCherry inh | VACV Venus inh
CCOC(=O)c1c(C)oc2nc(C)nc(NCC3CCN(Cc4ccccc4C)CC3)c12 | -20% | -4%
Cc1ccc(Nc2nc3ccccc3s2)c(C)c1 | ? | -16%
COc1cccc(N2CC(C(=O)Nc3nnc(SCc4cccnc4)s3)CC2=O)c1 (stereo unspecified) | -16% | 0%
O=C(Nc1cccc(-c2nc3ccccc3o2)c1)C(F)(F)F | ? | -19%
CC(C)[C@H](NC(=O)OC(C)(C)C)c1cc(C(=O)NCCc2c[nH]c3ccccc23)c(N)s1 | -26% | -12%
O=C(COc1ccc2ccc(=O)oc2c1)Nc1ccc(CN2CCOCC2)cc1 | -19% | -5%
O=c1[nH]c2ccc(S(=O)(=O)NCc3ccccc3)cc2[nH]1 | -20% | -5%
O=C(c1ccco1)N1CCN(/C(=N/S(=O)(=O)c2cccs2)c2ccccc2Cl)CC1 | · | -12%
O=C(Nc1ccc2nc(SCc3ccc(Cl)cc3)sc2c1)c1ccccc1C(=O)N1CCOCC1 | · | -26%
Cc1cc2ccccc2n1CCNC(=O)c1ccc(Br)cc1 | -6% | 3%
C=CCc1cc(C)ccc1OCCCn1ccnc1 | i | 4%
Cc1nc(SCC(=O)N2CCN(c3ccccc3)CC2)c2oc3ccccc3c2n1 | · | -16%
Cc1ccc(S(=O)(=O)CC(=O)N2CCN(c3ccccc3F)CC2)cc1 | -3% | -16%
O=C1NC[C@@H](CCCCN2CCN(CCc3ccc(O)cc3)C(=O)C2=O)N(Cc2ccccc2)C1=O | 4% | 8%
COc1ccc2c(-c3cnc(N4CCOCC4)nc3)c(-c3ccc(S(C)(=O)=O)cc3)sc2c1 | -13% | -25%
Cn1c(=O)[nH]c(=O)c2c1nc1n2CCN1c1ccccc1 | -16% | -15%
CC(=O)c1cccc(Nc2nc3ccccc3n3cnnc23)c1 | -26% | -20%
Cc1oc(-c2cccc(Cl)c2)nc1CN1CCCC(C(=O)N2CCN(c3ccc(F)cc3)CC2)C1 (stereo unspecified) | -26% | ?
Cc1oc(-c2cccc(Cl)c2)nc1CSc1nc2c(c(=O)[nH]1)CCC2 | 0% | -6%
Cc1ccc(C)c(N2C(=O)N(Cc3cc(=O)n4ccccc4n3)c3ccccc3S2(=O)=O)c1 | -9% | -11%
O=C(CCCCCn1c(=O)[nH]c2ccccc2c1=O)NCc1ccccc1 | -3% | -4%
CN(C(=O)COC(=O)CSc1ccc(C(N)=O)cc1[N+](=O)[O-])C1CCS(=O)(=O)C1 (stereo unspecified) | 0% | -9%
Cc1cc(F)ccc1-c1cc(C(=O)NCc2cccc(C(F)(F)F)c2)[nH]n1 | 1% | -5%
CCC1(C)Cc2c(sc(NC(=O)CCC(=O)O)c2C#N)CO1 (stereo unspecified) | · | -5%
COc1cc(C(=O)NCC(=O)N2CCN(S(=O)(=O)c3ccccc3)CC2)cc(OC)c1OC | -9% | -12%

Structures listed so far that have a Cl atom (four):
SMILES | VACV mCherry inh | VACV Venus inh
O=C(c1ccco1)N1CCN(/C(=N/S(=O)(=O)c2cccs2)c2ccccc2Cl)CC1 | · | -12%
O=C(Nc1ccc2nc(SCc3ccc(Cl)cc3)sc2c1)c1ccccc1C(=O)N1CCOCC1 | · | -26%
Cc1oc(-c2cccc(Cl)c2)nc1CN1CCCC(C(=O)N2CCN(c3ccc(F)cc3)CC2)C1 (stereo unspecified) | -26% | ?
Cc1oc(-c2cccc(Cl)c2)nc1CSc1nc2c(c(=O)[nH]1)CCC2 | 0% | -6%

Pulled one by one from above:
SMILES | VACV mCherry inh | VACV Venus inh
Cc1nc(SCC(=O)N2CCN(c3ccccc3)CC2)c2oc3ccccc3c2n1 | · | -16%
COc1ccc2c(-c3cnc(N4CCOCC4)nc3)c(-c3ccc(S(C)(=O)=O)cc3)sc2c1 | -13% | -25%

Next part
SMILES | VACV mCherry inh | VACV Venus inh
CCc1nn2c(=O)cc(COC(=O)c3ccccc3NC(=O)C3CCCCC3)nc2s1 | -9% | -10%
COc1ccc(OCC(=O)OCC(=O)Nc2cc(S(=O)(=O)N3CCOCC3)ccc2Cl)cc1 | -18% | 0%
CN1CCN(C(=S)Nc2ccc(Oc3ccccc3)cc2)CC1 | -21% | -22%
CNC(=O)c1cc(C(=O)c2c(Cl)cccc2Cl)c[nH]1 | -13% | -15%
Cc1ccc(Cn2c(C(C)Nc3nc(-c4ccc(C)cc4)cs3)nc3cc(Cl)c(Cl)cc32)cc1 (stereo unspecified) | ? | 0%
COCCNc1nc(Oc2ccc(Cl)c(Cl)c2)c2sccc2n1 | i | -7%
CCOC(=O)c1ccc(NC(=O)CSc2nc3cccnc3n2C)cc1 | ? | ?
N#C/C(=C\c1ccc(Cl)cc1)c1n[nH]c(Cn2cncn2)n1 | · | 1%
CC(OC(=O)C1CCN(c2ccc(C(F)(F)F)cn2)CC1)C(=O)c1ccccc1 (stereo unspecified) | -13% | -18%
Cc1cc(=O)[nH]c(SCC(=O)Nc2c(C)n(C)n(-c3ccccc3)c2=O)n1 | i | -11%
CCCCCOC(=O)C1[C@H]2C(=O)N(CCCOC)C[C@]23C=C[C@H]1O3 (stereo partly specified) | · | -9%
CC(C)CC(=O)Nc1nnc(SCC(=O)Nc2ccc(F)cc2)s1 | -11% | -11%
CCOC(=O)N1CCc2c(sc3c2C(=O)NC(c2ccccc2)N3)C1 (stereo unspecified) | · | -27%
COc1ccc([C@H]2C=C3CN(C(=O)OC(C)(C)C)S(=O)(=O)[C@H]3C[C@H]2OC(=O)c2cccs2)cc1 | -14% | -20%
COc1ccc(-c2cn(-c3ccc(C)cc3)c(=O)n2CC(=O)Nc2ccc(OC)c(OC)c2)cc1 | ? | -28%
CCCCn1c(=N)c(S(=O)(=O)c2ccc(Cl)cc2)cc2c(=O)n3cccc(C)c3nc21 | -7% | -2%
O=C(CNC(=O)c1ccco1)N=Nc1c(O)[nH]c2ccc(Br)cc12 | i[7.34 µM] | -12%[7.34 µM]
O=C(Nc1scc(-c2ccccc2)c1C(=O)O)c1ccccc1F | 2% | 3%
O=C(O)c1cccc(CN2C(=O)CSC2=O)c1 | 4% | 16%
CCOC(=O)C1=NN(C(=O)Nc2cccc(C(F)(F)F)c2)C2C(=O)N(c3cccc(C(F)(F)F)c3)C(=O)C12 (stereo unspecified) | i | -13%
Cc1cc(/C=N/n2cnnc2)c(C)n1-c1ccc2ncccc2c1 | -9% | -14%
CCSc1nnc2n(-c3ccc(OC)cc3)c(=O)c3c4c(sc3n12)CCCC4 | -19% | -5%
O=C(/C=C/c1ccc(O)cc1)c1ccc(O)cc1O | ? | ?
Cc1ccc(N(CC(=O)NCc2ccccc2)C(=O)c2csnn2)cc1 | -1% | -23%
O=C1/C(=C\Nc2ccc(OC(F)(F)F)cc2)CCN1c1ncccn1 | · | -9%

Single entries from the list.
Entry of O=C(O)c1cccc(CN2C(=O)CSC2=O)c1 under VACV mCherry inh: 4%
Entry of O=C(CNC(=O)c1ccco1)N=Nc1c(O)[nH]c2ccc(Br)cc12 under VACV Venus inh: -12%[7.34 µM]
Entry of N#C/C(=C\c1ccc(Cl)cc1)c1n[nH]c(Cn2cncn2)n1 under VACV Venus inh: 1%
Entry of O=C(Nc1scc(-c2ccccc2)c1C(=O)O)c1ccccc1F under VACV Venus inh: 3%

(more compounds)
SMILES | VACV mCherry inh | VACV Venus inh
Cc1ccc(NC(=O)CCC(=O)c2cccs2)nc1 | -12% | -2%
COC(=O)c1ccc(NC(=O)CN2CCCN(Cc3ccc(Cl)cc3)S2(=O)=O)cc1 | -10% | -10%
COc1ccccc1C1OC2=C(Nc3ccc([N+](=O)[O-])cc3N2)C1=O (stereo unspecified) | -28% | -28%
Cc1ccccc1NS(=O)(=O)c1cc(C(=O)N2CCc3ccccc3C2)ccc1C | -18% | -8%
O=C(OCC(=O)N1CCCc2ccccc21)c1cccc(S(=O)(=O)N2CCc3ccccc32)c1 | -4% | -17%
Cc1ccccc1NC(=O)c1sc2nc3n(c(=O)c2c1C)CCC3 | -12% | -10%
Cc1ccc(S(=O)(=O)NCC(=O)N(CC(=O)NCc2ccc(F)cc2)CC2CCCO2)cc1 (stereo unspecified) | -28% | 3%
COc1ccc(-c2nc3c4ccccc4ccn3c2Cc2ccccc2C(F)(F)F)cc1OC | i | -3%
Cc1cccc(OCCN2C(=O)C(=O)c3cc(C)ccc32)c1 | ? | 4%
COc1cccc(C2/C(=C(/O)c3ccc4c(c3)CC(C)O4)C(=O)C(=O)N2CCCn2ccnc2)c1 (stereo unspecified) | -13% | -16%
COc1ccc(CN(CC2CCCO2)C(=O)c2cc3sccc3n2C)c(OC)c1 (stereo unspecified) | i | -6%
COc1ccc(Cn2ccn(Cc3cccc(C)c3)c(=O)c2=O)cc1 | 1% | 4%
CSCCC(NC(=O)c1ccco1)C(=O)Nc1ccc(C)c(S(=O)(=O)N2CCOCC2)c1 (stereo unspecified) | -17% | -17%
CCCc1cc(=O)[nH]c(-n2[nH]c3c(c2=O)CCCC3)n1 | ? | -11%
CC1S/C(=N/N=C/c2cccs2)NC1=O (stereo unspecified) | -8% | -3%
O=C(Cn1cnc2c(NCc3ccccc3)ncnc21)NCc1ccccc1 | ? | -24%
COC(=O)Cn1c(=O)c2cccn2c2ccc(F)cc21 | -11% | -7%
COc1cccc(C(=O)COc2cccc(NC(=O)c3cccc([N+](=O)[O-])c3)c2)c1 | · | ?
CCCC(=O)Nc1sc2c(c1C#N)CC(C)(C)NC2(C)C | · | -5%
CCOc1ncccc1C(=O)OCC(=O)Nc1cc(S(=O)(=O)N2CCOCC2)ccc1Cl | -5% | -9%
CC(Sc1cccc[n+]1[O-])C(=O)Nc1cccc([N+](=O)[O-])c1 (stereo unspecified) | i | -13%
COc1cc(CCN2C(=O)c3cccc4cccc(c34)C2=O)c(S(=O)(=O)N2CCCCCC2)cc1OC | -15% | -5%
CC(C)(C)n1nc2c(c1NC(=O)c1cccc(Cl)c1)CS(=O)(=O)C2 | -14% | -8%
CCN(CC)S(=O)(=O)c1cccc(C(=O)N/N=C/c2c(C)nn(-c3ccccc3)c2Cl)c1 | -15% | -3%
COc1ccc(-c2cc(C(F)(F)F)n3nc(C(=O)Nc4cc(C)ccc4C)cc3n2)cc1 | -8% | 3%

(continued)
SMILES | VACV mCherry inh | VACV Venus inh
COc1nc(Nc2ccc(C(C)=O)cc2)nc(OC)n1 | -12% | -9%
OC(c1ccccc1)c1ccccc1CN1CCCNC1=S (stereo unspecified) | i | -13%
C[C@@H]1CN([C@@H](C)CO)C(=O)CCCn2nncc2CO[C@@H]1CN(C)C(=O)C1CCCCC1 | i | -7%
NNC(=O)c1ccc(COCC(F)(F)C(F)F)cc1 | i | -8%
CCCCc1cc(=O)oc2cc(OCC(=O)N3C[C@H]4C[C@@H](C3)c3cccc(=O)n3C4)ccc12 | 9% | -2%
COC(=O)c1ccc(Sc2nnnn2-c2ccccc2)c([N+](=O)[O-])c1 | -28% | -25%
Cc1ccc(Cn2nnc(C(=O)Nc3ccc(F)c(F)c3)c2N)cc1 | i | -20%
CC(C)(C)C(=O)NC1CCN(CC(=O)Nc2ccc3c(c2)OCO3)CC1 | i | -11%
O=C(OC1CCOC1=O)c1ccc(-c2nc3ccccc3s2)s1 (stereo unspecified) | -5% | -22%
CN(C)C(=O)c1cccc(-c2cnc3c(NC=O)cc(-c4ccccc4F)cn23)c1 | ? | -20%
CCCCCc1c(-c2ccc(Cl)cc2)ncn1CCc1ccccc1OC | -19% | -12%
CN1C(=O)c2ccccc2N(C)C1c1ccccc1Cl (stereo unspecified) | -12% | -3%
Cc1ccc(S(=O)(=O)Nc2ccccc2N2CCOCC2)cc1 | ? | -21%
CCn1c2c(c(=O)n3ncc(C(=O)Nc4ccc(OC(F)(F)F)cc4)c13)CN(Cc1ccc(OC)cc1)CC2 | 7% | -2%
COCCCNC(=O)Cn1cc2c(n1)CCCCC2 | 7% | 0%
CCCC[C@@H]1C[C@H]1[C@@H](NC(=O)c1cccs1)c1ccc(C(F)(F)F)cc1 | ? | -3%
Oc1c(Cl)cc(Cl)cc1C1Nc2ccccc2-n2cccc21 (stereo unspecified) | -4% | -10%
COc1cc(CNCCN2CCOCC2)ccc1OCc1cccc(Cl)c1 | · | -22%
CCC(=O)N1CCc2cc(S(=O)(=O)N3CCN(c4ccccn4)CC3)ccc21 | -12% | -14%
S=c1nc(-c2ccccc2)n(Cc2cccnc2)c2c1CCCC2 | -12% | 10%
O=C1NC(=O)C(=Cc2cn(CCOc3ccc4c(c3)OCO4)c3ccccc23)C(=O)N1 | · | -1%
CCOC(=O)NC(=S)Nc1ccc(C(C)(C)C)cc1 | -2%[7.34 µM] | -4%[7.34 µM]
COc1ccc(/C=N/NC(=O)c2nc(-c3ccccc3)n(-c3ccccc3)n2)c(O)c1 | 3.2µM* | ?
Brc1ccc(-c2cnc3n2CCCC3)cc1 | · | -16%
COCCCC1CCN(C(=O)C2CCC(=O)N(C3CCCC3)C2)CC1 (stereo unspecified) | i | -13%

(listing goes on)
SMILES | VACV mCherry inh | VACV Venus inh
CS(=O)(=O)c1nc(S(=O)(=O)c2ccc(Cl)cc2)c(NCCN2CCOCC2)s1 | -6%[7.34 µM] | 0%[7.34 µM]
CCc1cccc(CC)c1NC(=O)CN1CC(C)SC1=NC1CCCCC1 (stereo unspecified) | -11% | 1%
CCOC(=O)c1c(-c2ccc(OC)cc2)oc2ccc(OCc3ccc(C(=O)OC)cc3)cc12 | -2% | 0%
O=C(COC(=O)c1cc(S(=O)(=O)N2CCOCC2)ccc1O)NCc1ccc2c(c1)OCO2 | -17% | -11%
CCc1ccc(OC(C)C(=O)N2CCC(c3nc4ccccc4o3)CC2)cc1 (stereo unspecified) | -6% | -9%
COc1cc2oc3cc(C)oc(=O)c3c2cc1OC | i | -24%
